MgrA-DNA mod = modulators of Staphylococcus aureus MgrA DNA binding | fluorescence polarization | inhibition, %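 (about 10 µg/mL by stock and volumes)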 | hit rate 0.13% among 84,000 | AID 602314;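 active = above 50% in either of two replicates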;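 note: 0% = protein plus DNA without compound and 100% = DNA alone without protein; higher means less MgrA bound to DNA so lower polarization; one replicate is shown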
Sa helicase inh = blocks Staphylococcus aureus DNA helicase | AID 485395 | hit rate 0.05% among 120,000 | inhibition, %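 (tested at about 80 µM)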 | purified S. aureus helicase, fluorescence unwinding assay; about half of the hits fall short of the stated cut;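 active = both duplicates at 50% or more, or one of them with a favoured structure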;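 note: 0% = mean of negative control wells and 100% = mean of positive control wells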
Numbers without * were called inactive; . = no result given. Some of the compounds tested; the hit share may differ from the screen's.

Below each compound – MgrA-DNA mod, Sa helicase inh
[1] CC(Nc1ccccc1CO)C(=O)N1CCOCC1 (configuration not stated)
    ., -8
[2] COc1ccc(C2=NN(C(=O)COc3ccc(NC(=O)c4ccco4)cc3)C(c3ccco3)C2)cc1 (configuration not stated)
    ., -5
[3] Cc1nn(C)c(C)c1NC(=S)NC1CCCC1
    2.5, 19
[4] COC(=O)C1=C(C)NC(C)=C(C(=O)OC)C1c1ccc(OC)cc1
    -0.5, .
[5] Cc1ccc(Cn2c(SCC(=O)N(C)C)nc3ccccc3c2=O)cc1
    ., 20
[6] c1ccc(N=C2NN=C(c3ccccc3)CS2)cc1
    ., 3
[7] O=C1CSc2cc(S(=O)(=O)N3CCN(c4ccccc4)CC3)ccc2N1
    -0.3, 2
[8] CC1=CC(=O)C(C(=O)/C=C/c2ccc(N(C)C)cc2)C(=O)O1 (configuration not stated)
    ., -136
[9] COc1ccccc1/C=N/NC=O
    ., -13
[10] CCc1c(C)c(C#N)c2nc3ccccc3n2c1NCc1ccccc1
    1.3, 13
[11] Cc1ccc(NC(=O)c2cnc3ccc(S(=O)(=O)N(C)C4CCCCC4)cc3c2Cl)cc1F
    -4.6, 4
[12] COc1ccc(NC(=O)C(CC(C)C)NS(=O)(=O)c2ccc3nc(C)sc3c2)c(OC)c1 (configuration not stated)
    ., 5
[13] Nc1cccc2c1C(=O)N(CCO)C2=O
    ., -58
[14] CCSC1=N/C(=C\c2cccc(OC)c2)C(=O)S1
    1.0, 7
[15] COCC(C)NCc1cc(=O)oc2cc(C)c(C(C)C)cc12 (configuration not stated)
    ., -9
[16] O=C(NCc1ccccn1)c1ccc(-c2nc3ccccc3s2)s1
    ., 11
[17] O=C(CCC(=O)N1CCN(c2ccc(Cl)c(Cl)c2)CC1)c1ccccc1
    ., 23
[18] CNS(=O)(=O)c1cc(-c2nn(C)c(=O)c3ccccc23)ccc1C
    2.1, 11
[19] Cc1oc(-c2ccc(Cl)cc2)nc1CN1CCC(C(=O)NC2CCCCC2)CC1
    ., 11
[20] CCc1nc2nonc2c2nc3ccccc3n12
    ., 6

Going on with the list:
Below each compound – MgrA-DNA mod, Sa helicase inh
[21] CC(=O)c1cc2c3c(c1)C1C=CCC1C(c1cccc([N+](=O)[O-])c1)N3CC1CC=CC21 (configuration not stated)
    1.4, .
[22] CC1CCN(CC(=O)c2cccs2)CC1
    ., 5
[23] Cc1c(C)n(C(=O)CN2CCC(C(N)=O)CC2)c2ccccc12
    -1.2, -3
[24] Nc1ncc(C(=O)OCC2CC2)c(C(F)(F)F)n1
    -2.0, .
[25] CCN(CC)S(=O)(=O)c1ccc(Nc2ccc(-c3ccc4c(c3)OCCO4)nn2)cc1
    0.1, 0
[26] CNC(=O)COc1ccc(S(=O)(=O)N2CCOCC2)cc1Cl
    -0.2, 17
[27] O=c1c2c(-c3ccc(F)cc3)csc2[nH]c(=S)n1-c1ccccc1
    6.4, .
[28] COc1ccc(/C=C(/NC(=O)c2ccco2)C(=O)N2CCCC2=O)cc1
    0.5, 2
[29] CSc1nc(NS(=O)(=O)c2cc(C(F)(F)F)cc(C(F)(F)F)c2)nn1C
    0.8, .
[30] COc1ccc(NC(=O)c2ccc(F)c(F)c2)c2ccccc12
    -1.8, 9
[31] N#CC(c1ccccc1)c1ccccc1C(=O)c1ccccc1 (configuration not stated)
    -1.2, .
[32] O=C(O)CNc1nnc(-n2cccc2)s1
    ., 17
[33] CCOC(=O)c1cc(O)c(C(=O)OCC)cc1O
    ., 1
[34] O=C(NN1CC(=O)N(C2CCCC2)C1=O)c1cc2c(s1)CCCC2
    0.5, -3
[35] COCC(=O)Nc1ccc(Nc2ccccc2)cc1
    0.8, 7
[36] CCN(CC)C(=O)Nc1ccc(NC(=O)N(CC)CC)cc1
    ., -15
[37] O=C(CCCCC(=O)Nc1c(I)cc(I)c(C(=O)O)c1I)Nc1c(I)cc(I)c(C(=O)O)c1I
    -2.8, .
[38] O=C(/C=C1\SC(=O)NC1=O)Nc1ccccc1
    ., 7
[39] Cc1ccccc1S(=O)Cc1ccc(C(=O)N2CCCC2)o1 (configuration not stated)
    0.7, -3
[40] CCN1CCN(c2cc(C)c3cc(NC(=O)/C=C/c4ccc(OC)cc4)ccc3n2)CC1
    ., -33

(continued)
Below each compound – MgrA-DNA mod, Sa helicase inh
[41] COC(=O)c1scc(S(=O)(=O)c2ccc(Cl)cc2)c1C
    0.2, .
[42] N/C(=N\OCc1c(F)cccc1Cl)c1ccc(Cl)cc1
    -2.2, .
[43] CCCCc1cc2c(c(NC(C)=O)n1)c(=O)oc1ccccc12
    ., -23
[44] CCOC(=O)N/N=C/c1cc(Br)cc(Br)c1O
    3.6, .
[45] CC(N)c1ccncc1 (configuration not stated)
    -9.3, -6
[46] CSc1n[nH]c(NCc2cccs2)n1
    ., 15
[47] Cc1csc(=O)n1CCC(=O)OCC(=O)c1ccc2ccccc2c1
    ., -3
[48] O=C(NCc1ccccc1)c1cc(=O)nc2sc(-c3ccccc3)nn12
    ., 11
[49] Cc1ccc(Nc2cn[nH]c(=S)n2)cc1
    ., 2
[50] CCN(CCN(C)C)C(=O)Cn1ncc2c1-c1ccccc1OC2
    0.8, 11
[51] CCOC(=O)C1C(c2ccccc2)C(C(=O)OCC)C1c1ccccc1 (configuration not stated)
    5.3, 7
[52] CNc1ncc(C(=O)C(C)(C)C)s1
    -0.2, .
[53] O=C1c2oc3ccccc3c(=O)c2C(c2ccc(O)cc2)N1c1ccccn1 (configuration not stated)
    ., -14
[54] COc1ccc(COc2ncnc3sccc23)cc1F
    ., 10
[55] O=c1oc2ccccc2c(O)c1/C=N/c1ncccn1
    ., 17
[56] COc1cccc2sc(NCc3ccccc3)nc12
    1.9, 8
[57] COc1ccc(-c2nnc(NC(=O)c3ccc(S(=O)(=O)N4CCCCC4)cc3)o2)cc1
    ., 1
[58] O=C1/C(=C/c2cccs2)CC/C1=C\c1cccs1
    5.0, .
[59] CCOC(=O)c1c(C)[nH]c(C(=O)N/N=C\c2ccccc2)c1C
    ., 8
[60] CCCCc1nn2c(=O)cc(O)nc2s1
    0.9, 3

Additional results follow.
Below each compound – MgrA-DNA mod, Sa helicase inh
[61] CS/C(N)=N\C(=S)Nc1cccc(Cl)c1
    -0.5, .
[62] c1ccc(-c2csnn2)cc1
    0.6, .
[63] Cc1ccc(NC(=O)CCN2CC(C)CC(C)C2)cc1 (configuration not stated)
    3.5, -2
[64] Cc1onc(-c2c(F)cccc2Cl)c1C(=O)NC1CCSC1=O (configuration not stated)
    ., 5
[65] CCOCCCN1Cc2c(C(=O)OCC)sc3sc(C(=O)OCC)c(c23)C1
    -0.8, -2
[66] CN(Cc1ccccc1)C(=O)c1ccc(CSc2nc3ccncc3n2Cc2ccccc2)cc1
    -2.5, 6
[67] COC(=O)c1c(NC(=O)C2COc3ccccc3O2)sc2c1CCCC2 (configuration not stated)
    3.8, .
[68] CC(NCCO)c1ccc2c(c1)OCCO2 (configuration not stated)
    -3.5, 4
[69] COc1ccc(CCN2CC(O)=C(c3nc4ccccc4c(=O)[nH]3)C2=N)cc1OC
    0.2, 10
[70] CCC1CCCCN1C(=O)COc1cc2oc(=O)c3c(c2cc1Cl)CCC3 (configuration not stated)
    -2.5, 10
[71] COc1cc([N+](=O)[O-])c(OC)cc1SCC(=O)NNC(=S)Nc1cc(C(F)(F)F)ccc1Cl
    2.2, .
[72] COC(=O)C1=C(NC(=O)c2cccc3ccccc23)CCS1
    ., 4
[73] CC(OC(=O)/C=C/c1cccc(Cl)c1)C(=O)N1CCN(C(=O)c2ccco2)CC1 (configuration not stated)
    ., -9
[74] Cc1nc2ccccc2n1CCCOc1ccccc1
    ., 22
[75] Oc1ccc(C=Nc2cccc(C(F)(F)F)c2)c(O)c1
    13, -6
[76] COc1ccc(-c2nnc(NC(=O)c3ccccc3C)s2)c(OC)c1
    ., 15
[77] COc1cc(/C=C2/C(=O)N(c3ccccc3)N=C2C)ccc1OCCOc1ccc(C)cc1
    2.5, .
[78] CCCC1CCc2nc3ccccc3c(C(=O)O)c2C1 (configuration not stated)
    ., 9
[79] CCCn1c(=NC(=O)C(CC)c2ccccc2)c(C(=O)OCC)cc2c(=O)n3ccccc3nc21 (configuration not stated)
    9.0, 6
[80] Cn1c(C(=O)NCC2CCCO2)cc2c(=O)n(C)c3ccccc3c21 (configuration not stated)
    -1.5, 12

The list goes on, starting with the last 7 of the part before.
Below each compound – MgrA-DNA mod, Sa helicase inh
[74] Cc1nc2ccccc2n1CCCOc1ccccc1
    ., 22
[75] Oc1ccc(C=Nc2cccc(C(F)(F)F)c2)c(O)c1
    13, -6
[76] COc1ccc(-c2nnc(NC(=O)c3ccccc3C)s2)c(OC)c1
    ., 15
[77] COc1cc(/C=C2/C(=O)N(c3ccccc3)N=C2C)ccc1OCCOc1ccc(C)cc1
    2.5, .
[78] CCCC1CCc2nc3ccccc3c(C(=O)O)c2C1 (configuration not stated)
    ., 9
[79] CCCn1c(=NC(=O)C(CC)c2ccccc2)c(C(=O)OCC)cc2c(=O)n3ccccc3nc21 (configuration not stated)
    9.0, 6
[80] Cn1c(C(=O)NCC2CCCO2)cc2c(=O)n(C)c3ccccc3c21 (configuration not stated)
    -1.5, 12
[81] O=c1oc2ccccc2c(O)c1CN1CCCCC1
    0.9, -2
[82] Cc1ccc(N2C(=O)CC(C(=O)O)C2c2cccs2)cc1 (configuration not stated)
    ., 7
[83] CC(C)(C)c1cc2ncnc(N3CCCCC3)c2s1
    3.5, .
[84] O=C(NCc1ccco1)c1ccc(Cn2c(=S)[nH]c3ccc(Br)cc3c2=O)cc1
    0.4, 3
[85] N#C/C(=C(/O)CSc1ncnc2c1cnn2-c1ccccc1)c1nc2ccccc2[nH]1
    ., 23
[86] CCCc1nc(N2CCCC2)c(C#N)c2c1CCCC2
    ., 1
[87] O=C(Nc1ccc(SC(F)F)cc1)c1ccccc1C(F)(F)F
    ., -1
[88] Clc1ccc(-c2csc3ncnn23)cc1
    ., -15
[89] COc1ccc(/C=C/C(=O)OCc2ccccc2)cc1OC
    0.6, 6
[90] Cn1c(CNC(=O)OC(C)(C)C)nnc1SCc1c(F)cccc1Cl
    -3.2, .
[91] O=S(=O)(Cc1ccccc1)N(O)c1ccccc1
    0.2, 7
[92] N#CCSc1nc2nccnc2c(=O)n1CCc1ccccc1
    -0.5, 4
[93] CCCOc1ccc(C(=O)CCC(=O)O)cc1
    3.5, .
[94] Cc1ccc(S(=O)(=O)Cc2ccc(C(=O)N3CCCC3)o2)cc1
    ., 6
[95] CCOc1cc(C2C3=C(CC(C)(C)CC3=O)Nc3ccccc3N2C(=O)c2ccccc2)ccc1O (configuration not stated)
    -0.3, .
[96] O=C(Nc1ccno1)N1CCOCC1
    -1.8, .
[97] O=C1c2ccccc2C(=O)N1CCCCn1c(=O)oc2ccccc21
    ., -4
[98] CCN(CC)c1ccc2cc(-c3nnc(-c4cccnc4)o3)c(=O)oc2c1
    8.5, -144
[99] CCn1c(SCCOc2ccc(OC)cc2)nnc1C(CO)NC(=O)c1ccc(OC)cc1 (configuration not stated)
    -1.5, 18
[100] N#Cc1ccc(OCCOC(=O)Cn2cnnn2)cc1
    ., -12

Later entries:
Below each compound – MgrA-DNA mod, Sa helicase inh
[101] N#C/C(=C\c1ccc(-c2cccc(C(F)(F)F)c2)o1)c1ccccc1
    1.1, -16
[102] COc1cccc(NCc2nnc(SC(C)c3nc4ccccc4c(=O)[nH]3)n2C2CCCCC2)c1 (configuration not stated)
    ., 6
[103] O=C(/C=C\c1cn(-c2ccccc2)nc1-c1cccs1)N1CCOCC1
    -0.3, -14
[104] Cn1c(=O)c2cc(S(=O)(=O)NC(C(=O)N3CCCCCC3)c3ccccc3)ccc2n(C)c1=O (configuration not stated)
    ., 5
[105] O=C(CSc1nnc(Cc2ccccc2)o1)NCC(=O)Nc1ccc(F)c(F)c1F
    ., -14
[106] CCSc1nc2ccccc2n1CC(=O)N1CCCCC1
    1.1, 7
[107] O=C(O)CCc1ccc(F)cc1
    -4.8, 6
[108] Cc1nc2c(Br)cc(Br)cc2c(=O)n1Cc1cccs1
    4.0, .
[109] CN(C(=O)Cn1nnc(-c2ccccc2Cl)n1)c1ccccc1
    ., -7
[110] CCn1c(SCC(=O)NC(C)(C)C)nnc1-c1cccc(C)c1
    0.9, 4
[111] CCOC(=O)C1=C(C)N=c2s/c(=C\c3ccc(C)c(OC)c3)c(=O)n2C1c1cc(OC)ccc1OC (configuration not stated)
    1.5, .
[112] O=C(Cc1cccs1)N1CCN(c2ccccc2)CC1
    -1.8, 9
[113] CNC(=O)CCCc1nc(-c2ccccc2)no1
    1.5, -1
[114] CCS(=O)(=O)N1CCc2cc(OC)c(OC)cc2C1c1ccc(OC)c(OC)c1 (configuration not stated)
    3.2, -11
[115] CN(C)c1ccc(/C=C2/SC(=Nc3ccccc3)NC2=O)cc1
    1.8, -28
[116] O=C(O)c1onc2ccccc12
    -3.0, .
[117] Cc1ccc(OCCNC(=O)C2CCCCC2)cc1
    0.8, 4
[118] O=C(Nc1cccc(-c2ccc3nncn3n2)c1)c1ccco1
    ., 14
[119] CCS(=O)c1ccccc1C(=O)OCC(=O)NCc1ccc(C)cc1 (configuration not stated)
    ., 10
[120] O=C(CSc1ncnc2sc3c(c12)CCCC3)Nc1ccccc1
    ., -24

Brought forward from above: 3 compounds; new compounds follow.
Below each compound – MgrA-DNA mod, Sa helicase inh
[118] O=C(Nc1cccc(-c2ccc3nncn3n2)c1)c1ccco1
    ., 14
[119] CCS(=O)c1ccccc1C(=O)OCC(=O)NCc1ccc(C)cc1 (configuration not stated)
    ., 10
[120] O=C(CSc1ncnc2sc3c(c12)CCCC3)Nc1ccccc1
    ., -24
[121] COc1ccc(CSc2nnc(C)s2)cc1F
    2.1, -2
[122] O=C(/C=C/c1ccc(F)cc1)Nc1nc2ccccc2s1
    ., -3
[123] CCn1cc(C(=O)OCC(=O)N2C(C)CCCC2C)c(=O)c2ccc(C)nc21 (configuration not stated)
    ., 8
[124] CC1CCCC(C)N1/N=C/c1ccccc1C(=O)O (configuration not stated)
    ., 16
[125] O=C1C2CC=CCC2C(=O)N1CC(=O)N(Cc1nnc(-c2ccc(Cl)cc2)o1)C1CC1 (configuration not stated)
    ., -4
[126] CN1CCn2ccc3[nH]c(=O)nc1c32
    ., 12
